# VDR inhibitor: vitamin D3 receptor (human) inhibition. VDR-SRC2-3 peptide fluorescence polarization, 2 h. Potency, µM, without a hit: max response, negative = inhibition, most hits filed as inhibitors. 400,000 tested, 0.93% active; active = well fitted inhibition curve with a large enough effect; inconclusive = small, poorly fitted or top-dose-only effect, or another doubt; inactive = no such curve, though single readings can be large or run the other way; note: series mostly up to about 120 µM
# Target sequence (P11473 whole entry, looked up): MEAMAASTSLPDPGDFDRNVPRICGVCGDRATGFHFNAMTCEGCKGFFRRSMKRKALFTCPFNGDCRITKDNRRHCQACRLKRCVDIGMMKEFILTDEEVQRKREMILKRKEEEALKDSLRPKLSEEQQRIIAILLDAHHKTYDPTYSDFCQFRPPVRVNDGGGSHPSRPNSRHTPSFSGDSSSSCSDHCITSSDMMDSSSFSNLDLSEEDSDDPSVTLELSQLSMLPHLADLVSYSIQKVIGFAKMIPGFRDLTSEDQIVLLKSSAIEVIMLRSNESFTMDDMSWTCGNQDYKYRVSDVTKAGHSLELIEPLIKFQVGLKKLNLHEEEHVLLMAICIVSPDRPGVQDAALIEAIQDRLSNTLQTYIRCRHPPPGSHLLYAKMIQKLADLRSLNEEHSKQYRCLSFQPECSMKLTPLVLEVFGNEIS
#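 Reagent solutions, kept cold and dark, are dispensed first; compounds are then pinned in at 23 nl, plates briefly spun, and incubated 2 h at ambient temperature. Inhibition of VDR–SRC2-3 peptide binding is read by fluorescence polarization.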
# Starred values were filed as active, the others as inactive; ? = inconclusive; & = joins results of further samples. % is set by controls: 0 for no effect and ±100 for the full control effect; potency is the fitted concentration of half-maximal effect. These rows are one share of the data; the hit share may differ from the screen's.
SMILES,VDR inhibitor
O=C(Nc1nc2c(s1)CCCC2)c1cc(-c2ccccc2)nc2ccccc12,-0.3%
CCOc1cc(C=O)cc(Br)c1OCC(N)=O,-11.1%
O=C(c1nc(SCc2ccc([N+](=O)[O-])cc2)n2ccccc12)C(F)(F)F,-3.6%
COc1cc(OC)cc(-c2nnc(SCC(=O)N3CCC(C)CC3)o2)c1,-13.0%
Nc1cc(OC(=O)c2ccccc2Br)nn1S(=O)(=O)c1ccccc1,-4.6%
Cn1cc(S(=O)(=O)NC[C@H]2O[C@@H](n3ccc(=O)[nH]c3=O)[C@H](O)[C@@H]2O)cn1,-0.5%
CC(C)NCC#CCOc1ccc(Cl)cc1,-14.5%
CC(C)CCNC(=O)CC1C(=O)N(Cc2ccccc2)C(C)c2nc3ccccc3n21 (stereo unspecified),17.4%
CC(C)(C)NS(=O)(=O)c1ccc(/C=C/C(=O)O)cc1,-18.9%
CN1C(=O)CC(Nc2cccc3cccc(N)c23)C1=O (stereo unspecified),-17.0%
O=C1Nc2cc(C(=O)NCCCN3CCCC3)ccc2S/C1=C/c1ccccc1F,-12.8%
CCCC(=O)Nc1cc(S(=O)(=O)N2CCOCC2)ccc1N1CCCCC1,89.1µM*
O=C1c2ccccc2C2(c3ccccc3)N1CCN2C(=O)C(Cl)(Cl)Cl (stereo unspecified),-7.9%
CCN=c1sc(C(=O)OC)cc(=O)n1CC,-2.3%
O=C(CCc1ccc(S(=O)(=O)N2CCOCC2)cc1)Nc1cc(Cl)ccc1N1CCOCC1,-1.5%
COc1cc(C2C(C#N)=C(N)Oc3n[nH]c(-c4cccs4)c32)cc(OC)c1O (stereo unspecified),-12.3%
O=C(O)c1ccccc1-c1cn2cc(Cl)ccc2n1,5.6%
Clc1cccc(-c2nc(-c3ccccn3)no2)c1,-0.1%
CCn1cc([N+](=O)[O-])c(C(=O)Nc2ccn(Cc3ccccc3)n2)n1,1.6%
COc1ccccc1-c1nn(Cc2ccccc2)cc1/C=C/C(=O)O,-11.9%
CCOc1ccc2nc(SCC(=O)N(CCOC)c3c(N)n(Cc4ccccc4)c(=O)[nH]c3=O)[nH]c2c1,0.7%
O=C(CCCN1C(=O)/C(=C\c2cccs2)SC1=S)Nc1cccnc1,-19.6%
COC(=O)CSC1=C(C#N)C(c2ccc(C)o2)CC(=O)N1 (stereo unspecified),-5.9%
CCOC(=O)N1CCC(=NNS(=O)(=O)c2cccc([N+](=O)[O-])c2)CC1,7.4%
CN1C(=O)C(=O)/C(=C(/O)c2ccccc2)C1c1ccccc1 (stereo unspecified),1.2%
Cc1c(Cl)cccc1NC(=O)Nc1nnc(N(C)Cc2ccccc2)s1,15.9%
O=C(COC(=O)CCC(=O)c1ccc(F)cc1)Nc1cccc(S(=O)(=O)N2CCOCC2)c1,6.7%
O=C(O)Cn1nnnc1SCC(=O)Nc1ccc(F)cc1F,3.1%
CCc1ccc(C(=O)NNC(=O)c2c(CC)noc2C)cc1,7.1%
N#Cc1nc(-c2cccs2)oc1N1CCN(c2ccccc2)CC1,-11.1%
O=C(COC(=O)/C=C/c1ccc2c(c1)OCO2)NCc1ccccc1,10.0%
CCc1cccc(C)c1NC(=O)CCn1c(=O)c2cccn2c2ccccc21,5.5%
CCOC(=O)CCCNC(=O)CSc1nc2ccc(OCC)cc2[nH]1,14.6%
O=C(COC(=O)CCc1nc2ccccc2c(=O)[nH]1)Nc1ccccc1,7.0%
CN1CC(=O)N(CC(=O)Nc2ccc(Cl)c(C(F)(F)F)c2)c2ccccc2C1=O,12.6%
CCOc1ccc(NC(=O)CS(=O)CC(=O)N(CC(=O)NC(C)(C)C)C2CCCC2)cc1 (stereo unspecified),9.4%
COc1ccc2[nH]c(C)c(CCNC(=S)Nc3ccccc3C)c2c1,6.0%
Cc1c(C2=CCN(S(=O)(=O)c3cccc(Cl)c3)CC2)c2ccccc2n1CC(=O)N1CCCC1,-6.5%
Cc1ccc(C)c(S(=O)(=O)N(C)C2(C)CCS(=O)(=O)C2)c1 (stereo unspecified),2.9%
C=CCCN(Cc1ccccc1)S(=O)(=O)c1cc(Br)ccc1Br,-19.6%
CN(Cc1ccccc1)C(=O)Cn1c(=O)oc2cc(S(=O)(=O)N3CCCC3)ccc21,-1.6%
Cc1ccc2[nH]c(=O)c(CN(Cc3cccs3)C(=S)NCC3CCCO3)cc2c1 (stereo unspecified),-18.7%
CCN(C(=S)Nc1cccnc1)c1ccccc1,-16.4%
Cc1ccc(N2C(=O)N(CC(=O)Nc3ccc(F)c(F)c3)C(=O)C2C)cc1 (stereo unspecified),-13.6%
CCC1CCc2sc(C(=O)NCC(c3ccccc3OC)N3CCCC3)cc2C1 (stereo unspecified),9.9%
CCOC(=O)c1ccc(NC(=O)CNC(=O)C23CC4CC(CC(C4)C2)C3)cc1,21.6%
COc1ccccc1Nc1nc(Cl)c(C=O)s1,2.7%
O=C(Nc1cccc2ncccc12)c1cc([N+](=O)[O-])ccc1Cl,1.0%
O=C(NCc1ccccc1Cl)C1CCN(S(=O)(=O)N2CCOCC2)CC1,-9.1%
O=C(NNC(=O)c1cc2ccccc2cc1O)Nc1ccc(F)cc1F,8.1%
Cc1ccc2c(COC(=O)c3ccccc3Br)cc(=O)oc2c1,9.4%
CCCn1c(COc2ccccc2)nc2ccccc21,?
CC1(C)CC(=O)c2sc(NC(=O)CCS(=O)(=O)c3ccccc3)nc2C1,15.5%
CC1=C(C(=O)Nc2ccc(F)cc2)C(c2ccc(N(C)C)cc2)NC(=O)N1 (stereo unspecified),1.5%
C=CCN1C(=O)CN=C1Nc1ccc(F)cc1,12.9%
O=C(/C=C/c1ccccc1)N1CCC(Cc2ccccc2)CC1,-26.5%
COc1ccc2c(c1)C(=O)[C@@H](OC(=O)NCc1ccc3c(c1)OCO3)[C@H](c1ccc(OC)c(Br)c1)O2,4.6%
CCOc1ccc(NC(=O)C(C)Sc2nccn2C)cc1 (stereo unspecified),19.7%
COC(=O)Cc1ccc(NC(=O)c2ccc(Br)o2)cc1,-7.4%
CC1CC(C)CN(C(=O)c2ccc(S(=O)(=O)N3CCCC3)cc2)C1 (stereo unspecified),-7.6%

# The list goes on.
SMILES,VDR inhibitor
NC(=S)N/N=C/C=C/c1ccccc1,-8.5%
O=S(=O)(NC1=NCCCCCC1)c1cccs1,-13.8%
COc1ccc(NC(=O)Cn2c(=O)n(-c3ccccc3)c(=O)c3c4c(sc32)CCCC4)cc1,-6.3%
O=C(COc1ccc(Cl)cc1)Nc1ccc2oc(-c3ccncc3)nc2c1,-17.3%
CN(C)CCCNc1cc(N2CCN(C3CCCCC3)CC2)c2noc3c2c1C(=O)c1ccccc1-3,-22.9%
O=S(=O)(c1ccccc1)N1N=C(c2cccs2)CC1c1cccc(O)c1 (stereo unspecified),3.4%
CC(=O)NNC(=O)CCC(=O)Nc1ccccc1,3.8%
O=C(CCn1c(=S)[nH]c2ccccc2c1=O)NCCc1ccc(Cl)cc1,-0.7%
COc1cc(OC)cc(C(=O)NCCN2CCOCC2)c1,-3.1%
COC(=O)C1CN(C(=O)C(C)Oc2ccc(C)c(C)c2)c2ccccc2O1 (stereo unspecified),-23.4%
Cc1ccc(N(C(=O)c2snc(C(N)=O)c2N)C(C(=O)NC2CCCC2)c2ccco2)cc1 (stereo unspecified),12.9%
CC(C)c1ccccc1NC(=O)C1C2C=CC(C2)C1C(=O)O (stereo unspecified),-8.2%

# Copied from the list.
# Entry of COc1ccc(NC(=O)Cn2c(=O)n(-c3ccccc3)c(=O)c3c4c(sc32)CCCC4)cc1 in VDR inhibitor: -6.3%
# Entry of NC(=S)N/N=C/C=C/c1ccccc1 in VDR inhibitor: -8.5%

# Additional records follow:
SMILES,VDR inhibitor
COc1ccc(S(=O)(=O)c2cnc3ccc(Cl)cc3c2N2CCCCC2C)cc1 (stereo unspecified),9.6%
CC(C)(C)OC(=O)C[C@@H]1C/C=C\C[C@@H](CC(=O)NCCO)C(=O)N2CCC[C@H]2COC1=O,-10.9%
CCCn1nc2cc(C(=O)NCc3ccc(OC(F)(F)F)cc3)ccc2c1OCC,1.2%
CC(=N\NC(=O)c1ccccc1)/C(=N/O)C(=O)Nc1ccccc1,6.4%
CSc1ccc(S(=O)(=O)NCC(=O)OCC(=O)N2CCCC2=O)cc1[N+](=O)[O-],8.7%
COc1ccc(C)cc1NC(=O)COC(=O)c1ccc(OCc2ccc(Cl)cc2Cl)c(OC)c1,-15.3%
Cc1ccc(C(=O)Nc2nc(N)n(-c3ccccc3)n2)cc1,-14.8%
CCN1CCN(Cc2c3ccccc3cc3ccccc23)CC1,-20.7%
COc1ccc(CNC(=O)c2c(O)nc3cc(C)ccn3c2=O)cc1,-0.7%
Cc1cc(C)nc(N2N=C(C(C)(C)C)CC2=O)n1,-13.8%
CC(=O)c1cccc(N/C=C\c2nnnn2-c2ccc(F)cc2)c1,-9.9%
Cc1ccc(C2NC(=O)c3n[nH]c(-c4cccs4)c32)cc1 (stereo unspecified),-13.1%
COc1ccc(NC(=O)CN(C)C(=O)Cc2n[nH]c(=O)c3ccccc23)cc1,9.4%
CCN(c1ccc(NC(=O)COC(=O)c2ccc([N+](=O)[O-])o2)cc1)C(C)C,-24.5%
OCCC1CN(C2CCC2)CCN1Cc1ccc(F)c(F)c1 (stereo unspecified),2.4%
COc1cc(N)c(Cl)cc1NC(=O)c1ccccc1,-19.0%
Cc1csc(NC(=O)CSc2nc3ccccc3c(=O)[nH]2)n1,-14.1%
Cc1ccc(S(=O)(=O)N(C)CCCC(=O)Nc2cccc3ccccc23)cc1,-0.3%
CSCCC(NC(=O)c1ccccc1Cl)C(=O)N1CCCC(C)C1 (stereo unspecified),-17.9%
CC(=O)N1CCCc2cc(S(=O)(=O)N3CCCC(C(=O)N4CCN(c5cccc(Cl)c5)CC4)C3)ccc21 (stereo unspecified),-10.4%&7.5%
CC(=O)Nc1sc(NC(=O)c2ccc(C)cc2)nc1-c1cccs1,14.2%
O=C(NCCCN1CCOCC1)c1ccc(Cl)cc1Cl,3.3%
O=C(NNC(=O)c1ccccc1Cl)c1ccco1,6.8%
CCCOc1ccc(C(=O)CCC(=O)OCC(=O)N2CCN(S(=O)(=O)c3ccc(C)cc3C)CC2)cc1,4.8%

# Some of these compounds in order of formula weight, lowest first.
SMILES,VDR inhibitor
O=C(NNC(=O)c1ccccc1Cl)c1ccco1,6.8%
COc1cc(N)c(Cl)cc1NC(=O)c1ccccc1,-19.0%
Cc1ccc(C(=O)Nc2nc(N)n(-c3ccccc3)n2)cc1,-14.8%
Cc1ccc(C2NC(=O)c3n[nH]c(-c4cccs4)c32)cc1 (stereo unspecified),-13.1%
CCN1CCN(Cc2c3ccccc3cc3ccccc23)CC1,-20.7%
OCCC1CN(C2CCC2)CCN1Cc1ccc(F)c(F)c1 (stereo unspecified),2.4%
O=C(NCCCN1CCOCC1)c1ccc(Cl)cc1Cl,3.3%
CC(=N\NC(=O)c1ccccc1)/C(=N/O)C(=O)Nc1ccccc1,6.4%
Cc1csc(NC(=O)CSc2nc3ccccc3c(=O)[nH]2)n1,-14.1%
CC(=O)Nc1sc(NC(=O)c2ccc(C)cc2)nc1-c1cccs1,14.2%
CSCCC(NC(=O)c1ccccc1Cl)C(=O)N1CCCC(C)C1 (stereo unspecified),-17.9%
CCN(c1ccc(NC(=O)COC(=O)c2ccc([N+](=O)[O-])o2)cc1)C(C)C,-24.5%
COc1ccc(NC(=O)CN(C)C(=O)Cc2n[nH]c(=O)c3ccccc23)cc1,9.4%
Cc1ccc(S(=O)(=O)N(C)CCCC(=O)Nc2cccc3ccccc23)cc1,-0.3%
CCCn1nc2cc(C(=O)NCc3ccc(OC(F)(F)F)cc3)ccc2c1OCC,1.2%
CSc1ccc(S(=O)(=O)NCC(=O)OCC(=O)N2CCCC2=O)cc1[N+](=O)[O-],8.7%
CC(C)(C)OC(=O)C[C@@H]1C/C=C\C[C@@H](CC(=O)NCCO)C(=O)N2CCC[C@H]2COC1=O,-10.9%
COc1ccc(C)cc1NC(=O)COC(=O)c1ccc(OCc2ccc(Cl)cc2Cl)c(OC)c1,-15.3%
CCCOc1ccc(C(=O)CCC(=O)OCC(=O)N2CCN(S(=O)(=O)c3ccc(C)cc3C)CC2)cc1,4.8%
CC(=O)N1CCCc2cc(S(=O)(=O)N3CCCC(C(=O)N4CCN(c5cccc(Cl)c5)CC4)C3)ccc21 (stereo unspecified),-10.4%&7.5%

# More entries follow:
SMILES,VDR inhibitor
COc1ccc(-c2csc(NC(=O)COC(=O)c3ccco3)n2)cc1,-4.6%
CSc1nc(Nc2cccc(C)c2)c(C#N)c(-c2ccccc2)n1,23.8%
Clc1ccc(SCCN2CCNCC2)cc1,-1.7%
CCCNCC(O)Cn1c2ccccc2n2c(=O)cc(C)c(C#N)c12 (stereo unspecified),-9.1%
COc1ccc(-c2ccc(SCC(=O)Nc3cc(C)on3)nn2)cc1OC,4.7%
O=[N+]([O-])c1cc(-c2nc(-c3ccccc3)no2)ccc1NCc1ccco1,5.4%
